Screening results (PubChem)
HNF4A DNA FP – change in binding of human HNF4 alpha to DNA. P41235. HNF4a-FITC DNA binding, fluorescence polarization, 1 h. activity change, % at 10 µM. hit rate 0.3% among 360,000. AID 1224865; in the data active = activity change above about 30%, passing the limit was not always enough;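 also: controls were the assay level and a saturating level of protein; the project sought stronger binding though the title names inhibitors; some compounds called inactive have numbers as strong as hits; positive values seem to mean higher polarization but the record does not say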
FGF22 binding – shifts melting point of recombinant human FGF22; AID 651658; Q9HCT0; calls only at 9.99 µM; recombinant FGF22 thermal shift, SYPRO orange fluorescence; percent of sucrose octasulfate shift, DMSO zero; hit rate 1.5% among 340,000;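 active = melting point raised past a set limit in the mean and every replicate; inconclusive = no clear call; three in four hits are not shown here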
Target sequence (Q9HCT0 whole entry, looked up): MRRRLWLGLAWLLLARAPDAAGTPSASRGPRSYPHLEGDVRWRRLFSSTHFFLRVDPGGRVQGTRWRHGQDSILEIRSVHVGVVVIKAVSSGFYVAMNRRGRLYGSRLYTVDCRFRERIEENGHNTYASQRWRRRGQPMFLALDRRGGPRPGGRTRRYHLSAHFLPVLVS
AF4-AF9 inh – blocks AF4 peptide binding to human AF9. P42568. AID 651704. hit rate 0.47% among 350,000. inhibition, % at 10 µM. AlphaScreen, biotin-AF4 peptide binding to FLAG-AF9;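 active = every replicate reaching a set inhibition limit, whatever the replicate mean, cut at about 25% in these data; inconclusive = mean inhibition reaches that limit but some replicates miss it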;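 also: 0% = plate neutral control median and 100% = total signal loss; the record names both 10 and 1 µM as test concentration; the first replicate is given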
Target sequence (P42568 whole entry, looked up): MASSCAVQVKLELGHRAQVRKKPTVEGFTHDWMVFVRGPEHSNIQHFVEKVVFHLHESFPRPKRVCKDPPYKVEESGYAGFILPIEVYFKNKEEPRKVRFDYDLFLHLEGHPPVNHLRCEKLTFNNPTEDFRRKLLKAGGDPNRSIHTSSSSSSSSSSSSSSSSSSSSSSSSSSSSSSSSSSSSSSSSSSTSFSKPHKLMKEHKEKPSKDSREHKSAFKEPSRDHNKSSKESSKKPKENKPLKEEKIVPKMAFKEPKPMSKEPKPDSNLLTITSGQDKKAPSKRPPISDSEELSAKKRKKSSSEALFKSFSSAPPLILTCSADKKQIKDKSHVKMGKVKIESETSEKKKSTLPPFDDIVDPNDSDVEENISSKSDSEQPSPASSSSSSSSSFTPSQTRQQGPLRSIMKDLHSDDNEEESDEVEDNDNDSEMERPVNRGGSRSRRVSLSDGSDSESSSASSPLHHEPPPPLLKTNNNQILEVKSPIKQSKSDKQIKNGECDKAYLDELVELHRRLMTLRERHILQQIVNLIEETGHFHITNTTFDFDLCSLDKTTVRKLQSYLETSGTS
rRNA inh HTS – selective bacterial rRNA inhibition in E. coli; GFP signal change (wild-type ribosome), % (test concentration not listed); E. coli WT GFP vs humanized-ribosome RFP mutants, fluorescence, 24 h; stronger effect = lower value; DMSO median 0, no signal -100; hit rate 1.6% among 350,000;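 active = significant combined selectivity score with lowered wild-type GFP, culture density cut under 30%, mutant RFP and density less affected; inactive = any of these conditions unmet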; also: one replicate is shown; some compounds called inactive have numbers as strong as hits
Vif TR-FRET – inhibitors of Vif binding to APOBEC3G peptide, primary screen, biochemical, TR-FRET, GST-Vif 1-94, biotin-A3G peptide, dose response retest (AID 1117319); TR-FRET GST-Vif / biotin-A3G peptide binding; higher % means a stronger effect; test concentration not given here; strong numbers were not always called active; one-dose inhibition, %; IC50 in µM for titrated hits; hit rate 0.57% among 260,000;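 active = above the screen mean plus three standard deviations and confirmed in dose response; inconclusive = results disagree or hit not tested in dose response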;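 also: Vif residues 1-94 fused to GST binding biotinylated APOBEC3G peptide 110-148; 0% = full assay without inhibitor and 100% = GST in place of GST-Vif; retest series ran down from 100 µM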
ALR inh – human ALR oxidase inhibition via reduced H2O2 | P55789 | purified ALR, DTT oxidation, H2O2 HRP-luminol luminescence | inhibition, % (no concentration beside the values) | hit rate 3.8% among 290,000;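 active = mean and each replicate at 75% or more; inconclusive = only one of the two met; inactive = neither met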;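 also: stock transfer was 7.5 nL into about 7.5 µL; 0% = neutral wells and 100% = wells with inactivated enzyme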
Target sequence (P55789 whole entry, looked up): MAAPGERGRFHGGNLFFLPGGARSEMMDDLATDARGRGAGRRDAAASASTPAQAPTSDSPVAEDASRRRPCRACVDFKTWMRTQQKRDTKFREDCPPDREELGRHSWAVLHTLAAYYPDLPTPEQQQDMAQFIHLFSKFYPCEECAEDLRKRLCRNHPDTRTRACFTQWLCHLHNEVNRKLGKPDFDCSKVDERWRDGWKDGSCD
Ecoli growth – E. coli growth inhibition. Escherichia coli growth, OD600, 23 h; stronger effect = lower value. OD600 absorbance (no concentration beside the values). hit rate 0.21% among 330,000;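 active = OD600 absorbance below the run mean of sample wells minus 3.6 SD, in any replicate, cut at about 0.56 in these data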;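 also: stock transfer was 300 nL into about 60 µL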
rRNA inh HTS OD600 – recorded beside rRNA inh HTS, whose call it bears; OD600 change, %; measured here: OD600 growth;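 optical density of the mix in the first replicate; 0 = DMSO median and -100 = no signal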
rRNA inh HTS RFP – also measured in rRNA inh HTS; calls as there; RFP signal change, %; measured here: RFP humanized mutant strains;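 first replicate; 0 = DMSO median and -100 = no signal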
The depositor's hits bear a star; i = inactive; ? = inconclusive; . = not tested or not shown; & = joins results of further samples. Some of the compounds tested; the hit share may differ from the screen's.

Below each compound: rRNA inh HTS OD600	FGF22 binding	ALR inh	rRNA inh HTS RFP	rRNA inh HTS	Vif TR-FRET	AF4-AF9 inh	HNF4A DNA FP	Ecoli growth
> Cc1cccc(-c2ccc([C@H]3[C@@H](CO)N4CCCCN(S(=O)(=O)c5ccccc5C)C[C@H]34)cc2)c1
 : -32	i	.	31	-41	.	4.0	.	.
> CN=C(Nc1ccccc1)SC1CC(=O)N(c2cccc(OC)c2)C1=O (centres undefined)
 : -12	.	-9	-4.5	-5	-7%	1.2	-1.2	0.7
> Cc1ccnc(N2C(=O)c3ccccc3C2Nc2cccc(C)c2C)c1 (centres undefined)
 : 4	i	.	-1.9	5	25%	2.2	2.2	0.76
> CCOC(=O)c1c(N)sc(C(=O)N2CCCCCC2)c1C
 : .	.	83*	.	.	1%	.	-1.5	0.74
> C[C@@H]1CN([C@@H](C)CO)C(=O)c2cc(NC(=O)Nc3ccc(C(F)(F)F)cc3)ccc2O[C@H]1CN(C)C(=O)Nc1ccc2c(c1)OCO2
 : -1	i	.	-1.1	4	.	5.9	.	.
> Cn1c(=O)c2c(nc(N3CCCCC3)n2C)n(C)c1=O
 : .	.	-6	.	.	7%&5%	.	0.4	0.68
> O=C1C=C(c2ccc(Cl)c(C(F)(F)F)c2)C[C@@H](c2ccc(Cl)cc2)C1
 : 7	i	1	0.9	7	.	2.4	3.7	.
> Cc1nn(-c2ccccc2)c(C)c1/C=N/NC(=O)c1cc(-c2ccc(Cl)s2)[nH]n1
 : .	.	-1	.	.	2%	.	-4.6	.
> CCNC(=O)C[C@@H]1C=C[C@H](NC(=O)NC2CCCCC2)[C@@H](CO)O1
 : 14	i	.	0.3	5	.	-3.0	.	.
> CCCCNC(=O)CCNS(=O)(=O)c1ccc(C)cc1
 : .	.	-1	.	.	1%	.	1.3	0.64
> C[C@H]1CN([C@@H](C)CO)C(=O)c2cc(NC(=O)C3CCCCC3)ccc2O[C@@H]1CN(C)C(=O)Nc1ccccc1
 : 2	i	.	0.5	2	.	-11	.	.
> CCc1c(C)[nH]n(-c2nc(-c3ccccc3)cs2)c1=O
 : -49	i	97*	0.2	-51	.	-0.6	-1.3	0.71
> c1ccc2c(Nc3ccc(N4CCOCC4)cc3)nc(N3CCOCC3)nc2c1
 : 2	i	92*	0.7	1	4%	17	1.6	.
> COc1cc(C(=O)Nc2ccccc2N2CCCCC2)cc(OC)c1OC
 : -60	i	-20	-13	-39	2%	-4.1	5.0	0.68
> COc1ccc(NC(=S)NC(C)Cc2cccs2)cc1 (centres undefined)
 : 1	i	4	-3.1	3	-9%	-0.7	5.1	0.7
> c1ccc(-c2nnc3sc(Cc4cccs4)nn23)cc1
 : .	.	-9	.	.	2%	.	-2.2	0.67
> COc1cccc(S(=O)(=O)N[C@@H]2CC[C@H](CCn3cc(-c4ccccn4)nn3)O[C@H]2CO)c1
 : -3	i	.	-3.0	-2	.	-1.9	.	.
> O=C(Cc1ccccn1)c1ccc(F)cc1
 : 5	i	-6	-2.2	12	.	3.7	1.4	0.68
> COc1ccc(S(=O)(=O)N2CCN(C(=O)c3ccc(C)o3)CC2)cc1
 : 1	i	.	-1.0	3	.	-0.5	-1.7	0.65
> COC(=O)c1ccc(CN2C(=O)NC3(CCC(C)CC3)C2=O)o1 (centres undefined)
 : .	.	-6	.	.	-4%	.	-3.0	0.72
> Cc1ccc(NC(=O)CCC(=O)NNC(=O)Cc2ccccc2)cc1C
 : .	.	0	.	.	-2%	.	-4.3	0.71
> C[C@@H]1CN([C@H](C)CO)C(=O)c2cc(NC(=O)Cc3ccccc3)ccc2O[C@@H](C)CCCCO[C@H]1CN(C)C(=O)NC1CCCCC1
 : -7	i	.	1.1	1	.	0.7	.	.
> CC(C)NS(=O)(=O)c1ccc(NC(=O)C(C)OC(=O)CCC2CCCCC2)cc1 (centres undefined)
 : -5	i	.	3.5	-7	0%	0.1	1.6	0.68
> Cc1ccc(OCCSc2nc3ncnc(N)c3[nH]2)cc1
 : 13	i	.	1.2	12	10%	-0.3	-1.1	0.64
> CCCC(=O)NC(=S)Nc1cccc(Cl)c1N1CCCC1
 : 3	i	-8	5.2	-4	4%	4.2	2.8	.
> C[C@H](NC(=O)C[C@H]1C=C[C@@H](NC(=O)C2CCC2)[C@@H](CO)O1)c1ccccc1
 : -8	i	.	-1.6	-1	.	-0.3	.	.
> CC1C/C(=N\NC(N)=S)c2cc(Cl)ccc2S1 (centres undefined)
 : 4	i	-4	32	16	0%	-1.2	4.9	.
> O=c1[nH]c(=O)n(Cc2ccccc2)c2nc(-c3ccco3)cc(C(F)(F)F)c12
 : .	.	-14	.	.	?	.	5.6	0.64
> O=C(C[C@@H]1CC[C@@H](NC(=O)C2CCC2)[C@H](CO)O1)NCCCN1CCOCC1
 : -1	i	.	-0.5	3	.	-1.1	.	.
> COC(=O)c1c(NC(=O)C(=O)N2CCOCC2)sc2c1CCC2
 : 17	i	27	-1.7	7	.	6.7	-7.1	0.65
> COc1cc(OC)cc(C(=O)NC(=S)NCCc2ccccc2)c1
 : 0	i	-31	1.5	-6	-3%	3.2	-1.7	0.69
> C[C@@H]1CCCCO[C@@H](CN(C)C)[C@H](C)CN([C@@H](C)CO)C(=O)c2cc(NS(=O)(=O)c3ccc(F)cc3)ccc2O1
 : 0	i	.	-3.7	1	.	-0.7	.	.
> COc1ccc2cc3cc(C(=O)NC(C)C)oc3nc2c1
 : .	.	.	.	.	5%	.	-1.1	0.66
> O=C(CN(c1ccccc1)S(=O)(=O)c1ccccc1)NCCSc1nc2ccccc2s1
 : .	.	2	.	.	-3%	.	-3.3	0.7
> COc1ccc(C(C)C)cc1S(=O)(=O)N1CCC(C(=O)NCC2CCCO2)CC1 (centres undefined)
 : -3	i	-3	-2.4	1	.	-2.6	-0.9	0.73
> O=C(Cc1cccs1)N/N=C/c1ccccn1
 : 4	i	-5	1.3	8	-2%	-5.5	-0.1	.
> COc1ccc(CCNC(=O)COC(=O)c2ccccc2NCCO)cc1OC
 : 7	i	.	-1.5	-1	1%	-13	0.1	0.67
> CCc1ccccc1NS(=O)(=O)c1ccc(OC)c2ncccc12
 : -2	i	2	-1.7	-1	7%	-6.2	2.0	0.7
> CCCn1c(=S)[nH]c2cc(C(=O)N3CCc4ccccc4C3)ccc2c1=O
 : .	.	0	.	.	.	.	1.8	0.7
> O=C(NC1CC2CCCC(C1)N2Cc1cccs1)c1ccc([N+](=O)[O-])cc1 (centres undefined)
 : .	.	-11	.	.	9%	.	.	0.71
> CN1C(=O)c2cc(NC(=O)C3CCCCC3)ccc2OC[C@H]2O[C@H](CC(=O)NCc3ccccc3F)CC[C@@H]21
 : 0	i	.	0.0	0	.	-7.4	.	.
> O=S(=O)(c1ccc(Cl)c(F)c1)N1CCC(c2nc(-c3ccncc3)no2)CC1
 : .	.	13	.	.	0%	.	-1.0	0.73
> CCCCn1c(N)c(N(CC(C)C)C(=O)C2CCN(C(=O)c3ccc(F)cc3)CC2)c(=O)[nH]c1=O
 : -15	i	0	0.9	10	-2%	-3.7	-1.6	0.69
> O=C(Cc1ccncc1)NCC[C@@H]1CC[C@@H](NC(=O)C2CC2)[C@H](CO)O1
 : 3	i	.	-0.8	2	.	0.2	.	.
> COC(=O)Cc1ccc(O)c(N)c1
 : 13	i	95*	-1.3	10	22%	-3.1	4.5	0.64
> CCC(=O)NC(=S)NNC(=O)COc1ccc(Br)cc1
 : -4	i	23	-4.3	0	-5%	-0.5	1.4	0.61
> COCCNC(=O)C[C@H]1CC[C@@H]2[C@H](COc3ccc(NC(=O)c4cnccn4)cc3C(=O)N2C)O1
 : 4	i	.	0.5	0	.	-1.6	.	.
> Cc1nn(C)c(C(=O)N/N=C/c2ccncc2)c1Cl
 : 15	i	-5	0.9	23	5%	0.4	5.6	.
> O=C1NC(Cc2ccccc2)c2nc3cc(F)c(F)cc3c(=O)n2-c2ncccc21 (centres undefined)
 : 8	i	.	1.2	11	0%	-1.7	1.2	.
> C[C@H](CO)N1C[C@H](C)[C@@H](CN(C)Cc2ccc(Cl)c(Cl)c2)Oc2ccc(NC(=O)Cn3cnnn3)cc2C1=O
 : -11&-15	i	-6	2.3&17	-1&-15	.	1.6&1.1	-0.7	.
> CC=Cc1ccc2n(c1=O)C[C@H]1[C@H](CO)[C@@H](C(=O)N(C)C)[C@@H]2N1CC1CCOCC1 (mixture of isomers)
 : -1	i	.	-1.5	1	.	-0.8	.	.
> CCCOc1ccc(N2C(=O)CC(N(CCC)C(=O)CCC(=O)O)C2=O)cc1 (centres undefined)
 : .	.	.	.	.	12%	.	-1.4	0.72
> COc1ccc(C(=O)NCC(c2ccco2)N(C)C)cc1S(=O)(=O)NCc1ccc(Cl)cc1 (centres undefined)
 : 6	i	5	-1.2	9	.	2.1	2.8	0.7
> C[C@H]1CN([C@@H](C)CO)S(=O)(=O)c2ccc(-c3ccc(C(=O)N(C)C)cc3)cc2O[C@H]1CN(C)C(=O)Nc1ccccc1F
 : 2	i	.	-1.7	-4	.	0.1	.	.
> O=C(C[C@@H]1C/C=C/CC[C@H](Cc2ccc(F)cc2)C(=O)O[C@H](c2ccccc2)CNC1=O)NCCO
 : 4	i	3	-0.2	1	.	-3.2	0.4	.
> O=C(Nc1ccc(F)cc1)c1cccnc1NCCc1ccccc1
 : .	.	.	.	.	-5%	.	3.9	0.68
> CC(=O)c1ccc(OC(=O)C2CC(=O)N(c3cccc(C)c3)C2)cc1 (centres undefined)
 : .	.	30	.	.	0%	.	0.5	0.71
> CN(C)C(=O)[C@H]1[C@H](CO)[C@H]2Cn3c(ccc(C4=CCCCC4)c3=O)[C@@H]1N2CC1CC1
 : 4	i	.	-0.8	-1	.	0.0	.	.
> C[C@@H]1CCCCO[C@@H](CN(C)C(=O)Cc2ccccc2)[C@H](C)CN([C@@H](C)CO)C(=O)c2cc(NS(=O)(=O)c3cccs3)ccc2O1
 : -10	i	.	3.1	1	.	2.5	.	.
> C=CCOC(=O)C1=C(C)NC(SCC(=O)Nc2ccccc2)=C(C#N)C1c1ccco1 (centres undefined)
 : .	.	.	.	.	70%	.	-0.4	0.72

Next results
Below each compound: rRNA inh HTS OD600	FGF22 binding	ALR inh	rRNA inh HTS RFP	rRNA inh HTS	Vif TR-FRET	AF4-AF9 inh	HNF4A DNA FP	Ecoli growth
> C[C@H]1CN([C@@H](C)CO)S(=O)(=O)c2ccc(Br)cc2O[C@H]1CN(C)CC1CCOCC1
 : 5	i	.	-0.3	2	.	-0.8	.	.
> CNC[C@@H]1Oc2ccc(NC(=O)NC3CCCCC3)cc2C(=O)N([C@@H](C)CO)C[C@@H]1C
 : 1	i	.	-0.8	0	.	-1.9	.	.
> C=CCn1c(O)c(N=NC(=O)CNC(=O)/C=C/c2ccc(OC)cc2)c2ccccc21
 : 3	i	-5	1.0	7	-4%	0.3	2.7	0.67
> O=C(Nc1ccc(S(=O)(=O)Nc2ncccn2)cc1)c1ccc(Br)o1
 : 25	i	-6	2.1	26	5%	-1.4	3.2	0.66
> Clc1ccccc1-c1cc2nc(NCCCn3ccnc3)ccn2n1
 : -14	i	.	-0.6	-3	.	2.1	0.2	.
> CS(=O)(=O)N1CCCCN2[C@H](CO)[C@H](c3ccc(Br)cc3)[C@@H]2C1
 : 0	i	.	-1.1	-1	.	-9.3	.	.
> CCOc1nc2c(c(-c3cccs3)c1C#N)Cc1ccccc1-2
 : 17	i	7	0.1	15	-1%	.	0.1	.
> COc1ccc(C)cc1S(=O)(=O)N(C)CC(=O)NC1CCCCCC1
 : -12	i	-3	-0.6	-12	-3%	0.0	2.6	0.66
